PKD1 kinase inh = inhibitors of human PKD1 kinase. Q15139. PKD1 kinase fluorescence polarization assay. inhibition, %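 (about 10 µM by stock and volumes)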. 200,000 tested, 0.056% active. AID 797;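 active = inhibition of 50% or more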;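 also: controls were vehicle for no effect and a reference inhibitor for full effect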
INS promoter inh = TRM-6 insulin promoter activity inhibition | TRM-6 cells (human fetal islet line), insulin promoter-eGFP reporter, imaging; reporter expression induced with tamoxifen | inhibition, % at 2 µM | 130,000 tested, 0.9% active | AID 1273;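 active = inhibition above the mean plus 3 SD, with well images judged a real hit on visual review, cut at about 60% in these data, passing the limit was not always enough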
GALR2 ag = GALR2 (human) receptor agonism | O43603 | GALR2-expressing cells, agonist activation read-out | activation, %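 (tested at 5 µM)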 | 140,000 tested, 0.48% active;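 active = above mean plus 3 SD of all compounds, about 5% in these data, not always enough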;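 also: 0% = vehicle buffer wells and 100% = reference agonist at full effect; tested in CHO reporter cells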
Target sequence (O43603 whole entry, looked up): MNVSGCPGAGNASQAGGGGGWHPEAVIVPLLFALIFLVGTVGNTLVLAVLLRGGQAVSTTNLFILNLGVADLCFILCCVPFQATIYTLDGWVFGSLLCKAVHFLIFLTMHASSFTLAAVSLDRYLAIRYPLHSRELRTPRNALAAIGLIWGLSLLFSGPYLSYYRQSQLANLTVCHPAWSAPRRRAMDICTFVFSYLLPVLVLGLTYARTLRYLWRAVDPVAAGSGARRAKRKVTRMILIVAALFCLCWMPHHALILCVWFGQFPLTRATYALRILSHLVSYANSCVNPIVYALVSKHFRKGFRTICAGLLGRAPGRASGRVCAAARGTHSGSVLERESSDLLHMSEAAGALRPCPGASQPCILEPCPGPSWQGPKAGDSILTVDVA
RGS16-Gao HTS = regulators of human RGS16-Galphao interaction; O15492+P09471; bead-based flow cytometry RGS16-Galphao binding, fluorescence; actives lie on both sides; binding response (% of control), % at 10 µM; 220,000 tested, 0.38% active;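 active = below 25% or above 175%, edge rows of some plates excepted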;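 also: Galphao activated by GDP with aluminum fluoride before binding; 100% = wells without compound and 0% = beads without RGS; some results beyond the cut were filed as inactive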
Target sequence (O15492 whole entry, looked up): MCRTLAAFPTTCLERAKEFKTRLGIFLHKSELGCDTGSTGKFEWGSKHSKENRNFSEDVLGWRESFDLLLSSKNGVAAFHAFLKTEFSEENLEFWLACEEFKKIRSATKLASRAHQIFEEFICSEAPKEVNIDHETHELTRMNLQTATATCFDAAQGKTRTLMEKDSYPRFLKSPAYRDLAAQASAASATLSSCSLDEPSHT
Target sequence (P09471 whole entry, looked up): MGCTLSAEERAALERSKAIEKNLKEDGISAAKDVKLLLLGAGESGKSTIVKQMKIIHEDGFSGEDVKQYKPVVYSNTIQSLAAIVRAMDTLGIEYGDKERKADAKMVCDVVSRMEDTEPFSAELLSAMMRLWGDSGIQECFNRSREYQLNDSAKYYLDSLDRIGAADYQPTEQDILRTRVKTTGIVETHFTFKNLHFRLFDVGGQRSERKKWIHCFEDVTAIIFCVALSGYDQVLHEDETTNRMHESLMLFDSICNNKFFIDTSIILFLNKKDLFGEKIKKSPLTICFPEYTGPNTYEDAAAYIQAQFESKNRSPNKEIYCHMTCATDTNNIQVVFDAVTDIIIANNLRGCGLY
HSV augment = HSV replication enhancement. HSV replication augmentation in cells, fold increase. maximum fold increase. 220,000 tested, 0.005% active;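 active = peak rise of 1.5-fold or more in the series; tested in PC3 cells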;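 also: first round at 10 µM; read as green reporter fluorescence; hits show the peak of a series up to 25 µM; 1 = signal of infected wells without compound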
INS promoter inh cell count = further read-out of INS promoter inh, marked with its call; normalized cell count, %; measured here: cell count, toxicity; reference of the scale not given here;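 cells exposed to compound for 48 h; stained nuclei by imaging scaled within each plate; lower means fewer cells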
HSV augment primary fold = also measured in HSV augment; calls as there; fold increase; compound at 10 µM; measured here: primary screen fold increase 10 uM; tested in PC3 cells;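 GFP signal in the first replicate; 1 = infected wells without compound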
Starred values were filed as active, the others as inactive.

Screening CCOC(=O)c1cc(CC)sc1NC(=O)COC returned PKD1 kinase inh -0.8, INS promoter inh 48.0, GALR2 ag -1.9, RGS16-Gao HTS 104.2, HSV augment inactive, INS promoter inh cell count 137.3 and HSV augment primary fold 0.92.
COC(=O)NNC(=O)/C=C/c1ccccc1 was read as PKD1 kinase inh -5.8, INS promoter inh 13.8, GALR2 ag -1.4, RGS16-Gao HTS 100.7, HSV augment inactive, INS promoter inh cell count 127.2 and HSV augment primary fold 0.92.
COc1ccc(/C=N/Nc2nc3ccccc3[nH]2)cc1OC was read as PKD1 kinase inh -2.5, INS promoter inh 44.7, GALR2 ag -0.9, RGS16-Gao HTS 103.4, HSV augment inactive, INS promoter inh cell count 135.9 and HSV augment primary fold 0.97.
For NC(=O)/C=C/C(=O)Nc1ccc(Cl)cc1 the results were PKD1 kinase inh -0.4, RGS16-Gao HTS 98.2, HSV augment inactive and HSV augment primary fold 0.81.
`CCc1[nH]nc2c1C(c1cccnc1)C(C#N)=C(N)O2` (stereo not given) gave PKD1 kinase inh 1.1, INS promoter inh 26.9, GALR2 ag -1.1, RGS16-Gao HTS 84.6, HSV augment inactive, INS promoter inh cell count 136.2 and HSV augment primary fold 0.89.
COc1cc(C(=O)Nc2ccccc2-c2nnn(CC(N)=O)n2)cc(OC)c1OC was read as PKD1 kinase inh 2.5, INS promoter inh -37.8, GALR2 ag 0.1, RGS16-Gao HTS 97.6, HSV augment inactive, INS promoter inh cell count 89.4 and HSV augment primary fold 1.03.
For Cc1occc1-c1nnc(SCC(=O)N2CCOCC2)n1Cc1ccco1 the results were PKD1 kinase inh -4.3, GALR2 ag -0.8, RGS16-Gao HTS 104.5, HSV augment inactive and HSV augment primary fold 1.02.
`NC(=O)C1CCN(CC(O)CSc2ccccc2)CC1` (stereo not given) gave RGS16-Gao HTS 101.3, HSV augment inactive and HSV augment primary fold 1.13.
For COc1ccccc1OCc1nc(Cc2ccc(Cl)cc2)no1 the results were PKD1 kinase inh -9.1, INS promoter inh -5.0, GALR2 ag -0.9, RGS16-Gao HTS 100.0, HSV augment inactive, INS promoter inh cell count 55.8 and HSV augment primary fold 0.89.
Cc1ccc(S(=O)(=O)Cc2ccc(C(=O)N3CCN(Cc4ccccc4)CC3)o2)cc1 was read as PKD1 kinase inh -9.2, GALR2 ag -1.5 and RGS16-Gao HTS 107.8.
Screening Cc1cc(C)nc(/N=C(\N)Nc2ccc(S(=O)(=O)Nc3nc(C)cc(C)n3)cc2)n1 returned PKD1 kinase inh 5.9, RGS16-Gao HTS 93.3, HSV augment inactive and HSV augment primary fold 1.15.
`CC(=O)c1c(N)n(C)c(=O)n(C)c1=O` gave PKD1 kinase inh -5.0, INS promoter inh -177.4, GALR2 ag -2.8, RGS16-Gao HTS 109.0, HSV augment inactive, INS promoter inh cell count 81.0 and HSV augment primary fold 1.
For COc1cccc(NC(=O)c2ccc(NCCCN3CCC(C)CC3)c([N+](=O)[O-])c2)c1 the results were PKD1 kinase inh -1.9, INS promoter inh 25.0, RGS16-Gao HTS 102.4, HSV augment inactive, INS promoter inh cell count 105.6 and HSV augment primary fold 0.98.
`CCOc1ccc(NC(=O)CSc2n[nH]c(=O)n2-c2ccccc2)cc1` gave PKD1 kinase inh -7.6, INS promoter inh 52.9, GALR2 ag -5.8, RGS16-Gao HTS 101.4, HSV augment inactive, INS promoter inh cell count 75.2 and HSV augment primary fold 1.08.
`COc1ccc(NS(=O)(=O)c2cccc(C(=O)O)c2)cc1` gave PKD1 kinase inh -3.3, GALR2 ag -3.3, RGS16-Gao HTS 100.3, HSV augment inactive and HSV augment primary fold 0.86.
`CC1=NNC(=O)C1CC(=O)N/N=C/C=C/c1ccccc1` (stereo not given) gave RGS16-Gao HTS 100.3, HSV augment inactive and HSV augment primary fold 0.94.
For COC(=O)C(C)N=Cc1ccccc1 (stereo not given) the results were PKD1 kinase inh -1.1, INS promoter inh -22.2, RGS16-Gao HTS 113.8, HSV augment inactive, INS promoter inh cell count 129.2 and HSV augment primary fold 0.93.
For Cc1ccc(C(=O)N/C(=C\c2cccc([N+](=O)[O-])c2)C(=O)OCN2C(=O)c3ccccc3C2=O)cc1 the results were PKD1 kinase inh -2.8, INS promoter inh 41.4, GALR2 ag -0.3, RGS16-Gao HTS 36.1, HSV augment inactive, INS promoter inh cell count 96.4 and HSV augment primary fold 1.03.
For CCOc1ccc(N2C(=O)CC(N(Cc3ccco3)C(=O)CC)C2=O)cc1 (stereo not given) the results were PKD1 kinase inh 5.0, RGS16-Gao HTS 99.0, HSV augment inactive and HSV augment primary fold 1.13.
COc1ccc(NC(C)=O)cc1NC(=O)CN1CCN(CC(=O)Nc2ccc(Cl)cc2)CC1 was read as PKD1 kinase inh -4.2, GALR2 ag -1.2, RGS16-Gao HTS 100.9, HSV augment inactive and HSV augment primary fold 0.82.
`O=C(Nc1cccc(F)c1)/C(=C\c1ccco1)NC(=O)c1cccs1` gave PKD1 kinase inh 3.5, INS promoter inh 12.5, GALR2 ag -3.1, RGS16-Gao HTS 108.4, HSV augment inactive, INS promoter inh cell count 97.0 and HSV augment primary fold 0.92.
For O=C(N/N=C/c1c(Nc2cccc(C(F)(F)F)c2)nc2ccccn2c1=O)c1ccccc1 the results were PKD1 kinase inh -15.2, INS promoter inh 7.3, GALR2 ag -1.5, RGS16-Gao HTS 106.8, HSV augment inactive, INS promoter inh cell count 97.7 and HSV augment primary fold 1.02.
O=C(NCc1ccccc1)C(=O)Nc1nc(-c2ccccc2)cs1 was read as RGS16-Gao HTS 93.0, HSV augment inactive and HSV augment primary fold 0.9.
`CN(C)c1ccc(C=Nc2cnn(C)c2C(N)=O)cc1` gave PKD1 kinase inh -5.6, GALR2 ag -2.1, RGS16-Gao HTS 70.8, HSV augment inactive and HSV augment primary fold 0.91.
Screening CCOC(=O)c1[nH]c(C)c(C(=O)N2CCc3ccccc32)c1C returned PKD1 kinase inh -13.2, INS promoter inh -60.6, GALR2 ag 3.0, RGS16-Gao HTS 103.0, HSV augment inactive, INS promoter inh cell count 5.9 and HSV augment primary fold 0.897.
Screening C(=N\c1nc2ccccc2n1CCN1CCCCC1)/c1cccs1 returned PKD1 kinase inh -0.5, INS promoter inh 34.3, GALR2 ag -3.5, RGS16-Gao HTS 73.0, HSV augment inactive, INS promoter inh cell count 57.1 and HSV augment primary fold 0.94.
Screening O=c1cc(C(F)F)oc2c1ccc1ccccc12 returned PKD1 kinase inh -11.5, GALR2 ag -0.7, RGS16-Gao HTS 100.4, HSV augment inactive and HSV augment primary fold 0.85.
Screening CCN(CC)S(=O)(=O)c1ccc(Oc2ccccc2)cc1 returned PKD1 kinase inh -7.5, INS promoter inh 26.7, GALR2 ag -1.2, RGS16-Gao HTS 102.3, HSV augment inactive, INS promoter inh cell count 119.9 and HSV augment primary fold 0.94.
For COc1ccc(OC)c(C2C(C(=O)c3ccccc3)=C(C)Nc3nc4ccccc4n32)c1 (stereo not given) the results were PKD1 kinase inh -15.3, INS promoter inh -33.3, GALR2 ag -1.6 and INS promoter inh cell count 56.4.
Screening COc1ccc(Cl)c(OC)c1C(=O)NC(=O)Nc1c(F)cc(F)cc1F returned RGS16-Gao HTS 103.1, HSV augment inactive and HSV augment primary fold 0.82.
Screening Cc1ccc(C)c(N2CCN(C(=O)c3cc4ccccn4n3)CC2)c1 returned PKD1 kinase inh -17.3, GALR2 ag 0.5, RGS16-Gao HTS 98.5, HSV augment inactive and HSV augment primary fold 1.44.
Screening O=C(Cc1ccccc1)NCC(=O)N1CCCCC1 returned PKD1 kinase inh -4.3, RGS16-Gao HTS 103.8, HSV augment inactive and HSV augment primary fold 1.01.
CCOC(=O)c1ccc(Nc2nc(C(=O)OCC)nc3ccccc23)cc1 was read as PKD1 kinase inh 1.4, INS promoter inh 62.9, GALR2 ag -2.0, RGS16-Gao HTS 98.2, HSV augment inactive, INS promoter inh cell count 127.9 and HSV augment primary fold 0.83.
`CCOC(=O)C1CCN(c2nc(-c3ccc(Br)cc3)nc3ccccc23)CC1` gave PKD1 kinase inh -3.6, INS promoter inh 8.3, RGS16-Gao HTS 100.6, HSV augment inactive, INS promoter inh cell count 62.6 and HSV augment primary fold 0.98.
Screening Cn1c(SCC(=O)NCCc2ccc(S(N)(=O)=O)cc2)nc2ccccc2c1=O returned PKD1 kinase inh 3.6, RGS16-Gao HTS 99.6, HSV augment inactive and HSV augment primary fold 0.95.
Screening CC(C)C(=O)Nc1ccc(C(=O)N2CCCCCC2)cc1 returned PKD1 kinase inh -12.2, INS promoter inh 22.9, GALR2 ag -1.1, RGS16-Gao HTS 98.8, HSV augment inactive, INS promoter inh cell count 99.4 and HSV augment primary fold 0.76.
Cc1cc(C)n2ncc(C(=O)Nc3cccc(O)c3)c2n1 was read as PKD1 kinase inh -5.0, RGS16-Gao HTS 103.2, HSV augment inactive and HSV augment primary fold 0.89.
For COC(=O)c1cccc(C(=O)Nc2ccc(C)cc2Br)n1 the results were PKD1 kinase inh 2.9, GALR2 ag -0.3 and RGS16-Gao HTS 99.1.
`CC(=O)Nc1cccc(/C(C)=N/NC(=O)c2ccc(Cl)cc2Cl)c1` gave PKD1 kinase inh 5.8, INS promoter inh 26.7, RGS16-Gao HTS 115.4, HSV augment inactive, INS promoter inh cell count 128.5 and HSV augment primary fold 1.01.
Screening CC(C)(C)c1ccc(COC(=O)Nc2ccc(F)cc2)cc1 returned PKD1 kinase inh 3.5, INS promoter inh -31.2, GALR2 ag -0.2, RGS16-Gao HTS 96.0, HSV augment inactive, INS promoter inh cell count 135.0 and HSV augment primary fold 0.9.

The final four compounds of the part above open the next one:
Cc1cc(C)n2ncc(C(=O)Nc3cccc(O)c3)c2n1 was read as PKD1 kinase inh -5.0, RGS16-Gao HTS 103.2, HSV augment inactive and HSV augment primary fold 0.89.
For COC(=O)c1cccc(C(=O)Nc2ccc(C)cc2Br)n1 the results were PKD1 kinase inh 2.9, GALR2 ag -0.3 and RGS16-Gao HTS 99.1.
`CC(=O)Nc1cccc(/C(C)=N/NC(=O)c2ccc(Cl)cc2Cl)c1` gave PKD1 kinase inh 5.8, INS promoter inh 26.7, RGS16-Gao HTS 115.4, HSV augment inactive, INS promoter inh cell count 128.5 and HSV augment primary fold 1.01.
Screening CC(C)(C)c1ccc(COC(=O)Nc2ccc(F)cc2)cc1 returned PKD1 kinase inh 3.5, INS promoter inh -31.2, GALR2 ag -0.2, RGS16-Gao HTS 96.0, HSV augment inactive, INS promoter inh cell count 135.0 and HSV augment primary fold 0.9.
Screening CCOC(=O)CNC(=O)N1CCCC(C(=O)c2ccccc2SC)C1 (stereo not given) returned PKD1 kinase inh -0.1, RGS16-Gao HTS 102.5, HSV augment inactive and HSV augment primary fold 1.
Screening CCC(CC)c1nnc(NC(=O)C2CC(=O)N(c3ccc4c(c3)OCCO4)C2)s1 (stereo not given) returned PKD1 kinase inh -2.0, INS promoter inh 34.7, GALR2 ag -2.1, RGS16-Gao HTS 98.2, HSV augment inactive, INS promoter inh cell count 85.1 and HSV augment primary fold 1.11.
CN(C)c1nc2ccc(OCCN3CCCCC3)cc2s1 was read as PKD1 kinase inh 6.2, GALR2 ag -2.0, RGS16-Gao HTS 100.5, HSV augment inactive and HSV augment primary fold 0.83.
For O=C(Cc1ccccc1)NC(=S)Nc1ccc2oc(-c3ccccc3)nc2c1 the results were PKD1 kinase inh -0.3, GALR2 ag -0.8, RGS16-Gao HTS 110.1, HSV augment inactive and HSV augment primary fold 1.
COc1ccc(O)c(C(=O)c2cnc3nc4ccccc4n3c2)c1 was read as PKD1 kinase inh 3.1, INS promoter inh -42.9, GALR2 ag -0.6, RGS16-Gao HTS 103.9, HSV augment inactive, INS promoter inh cell count 124.7 and HSV augment primary fold 1.08.
Screening Cc1ccc2c([N+](=O)[O-])c(C)ccc2n1 returned PKD1 kinase inh -268.2, INS promoter inh 2.9, GALR2 ag -0.7, RGS16-Gao HTS 106.2, HSV augment inactive, INS promoter inh cell count 1.3 and HSV augment primary fold 1.05.
`CCOC(=O)C(C)Oc1ccc(OCc2ccccc2)cc1` (stereo not given) gave PKD1 kinase inh 9.2, INS promoter inh 55.6, RGS16-Gao HTS 76.7, HSV augment inactive, INS promoter inh cell count 112.9 and HSV augment primary fold 0.98.
`CCOC(=O)C1CCCN(C(=O)COC(=O)c2ccc(C#N)cc2)C1` (stereo not given) gave PKD1 kinase inh -3.6, INS promoter inh -18.9, RGS16-Gao HTS 86.0, HSV augment inactive, INS promoter inh cell count 86.0 and HSV augment primary fold 1.07.
